H5N1 antiviral: antiviral screen in MDCK cells, H5N1 avian flu; hit rate 0.07% among 96,000; inhibition, % at 50 µM; cytopathic effect, luminescence, 72 h; stronger effect = higher value; no value below 0 was filed and about half of the inactive calls have no number; reference of the scale not given here; in the data active means inhibition above about 25%
An asterisk follows results filed as active; i = inactive. This is a subset. The share of hits here may be higher or lower than overall.

compound | H5N1 antiviral
Cc1ccc(S(=O)(=O)c2cc3c(=O)n4ccccc4nc3n(Cc3ccco3)c2=N)cc1C | 0.7
CSc1nnc(CSCc2ccc(Cl)cc2Cl)n1-c1ccccc1 | i
CCc1nnc(NC(=O)CSc2nc3c(c(=O)n2CC)SC(C)C3)s1 (stereo unspecified) | 2.1
COc1ccc2[nH]c(C)c(CN3CCC(C)CC3)c(=O)c2c1 | 0.6
O=C(NC(=S)N(Cc1ccccc1)Cc1ccccc1)C1CCCCC1 | 0.5
Cc1onc(-c2ccccc2Cl)c1C(=O)Nc1ccc(S(=O)(=O)N2CCCC2)cc1 | 1.2
CC(=O)CN1Cc2ccccc2/C1=N\C(=O)Nc1ccccc1 | i
CCCn1c(SCC(=O)Nc2c(C)cccc2CC)nnc1C(C)C | i
CC(C)Cc1nc(NCCN2CCOCC2)c(C#N)c2c1COC(C)(C)C2 | i
COC(=O)c1cc(OC)c(OC)cc1NC(=S)N1CCN(C)CC1 | i
CC1CC(C)CN(Cc2nc(N)nc(Nc3ccc4ccccc4c3)n2)C1 (stereo unspecified) | i
COc1ccc(NC(=O)C2CCCN(S(=O)(=O)c3cccnc3)C2)cc1 (stereo unspecified) | i
COc1ccc(CCNS(=O)(=O)c2ccc(F)cc2)cc1OC | 0.2
COc1cc(NCCCC(C)N)c2ncccc2c1 (stereo unspecified) | i
CC1(C)CC(=O)c2cn3ncnc3nc2C1 | 0.7
O=C1CCCc2c1cc(C(=O)Nc1ccc(Br)cn1)c(=O)n2-c1ccccc1 | i
CCOc1ccc(C2CC(=O)n3nc(C45CC6CC(CC(C6)C4)C5)nc3S2)cc1OC (stereo unspecified) | i
COC(=O)c1[nH]c2c(c1C)C(=O)CC(c1ccc(C)cc1)C2 (stereo unspecified) | i
O=C(O)COc1c(F)c(F)c(C(F)(F)F)c(F)c1F | i
COc1cc2c(cc1NC(=O)c1cc(-c3ccncc3)nc3ccc(C)cc13)oc1ccccc12 | 0.0
COC(=O)C1C(=O)c2c([nH]c(C(=O)OC3CCCCC3)c2C)CC1C (stereo unspecified) | i
O=C(Nc1ccn(Cc2c(F)c(F)c(F)c(F)c2F)n1)c1cccc(Cn2cc([N+](=O)[O-])cn2)c1 | i
CC(=O)COc1ccc2c3c(c(=O)oc2c1C)CCCCC3 | 3.0
CCCCC(NC(C)=O)c1nc2ccccc2n1CCCC (stereo unspecified) | 0.1
Cn1nc(-c2ccc(Cl)cc2)c2cc(C(=O)N3CCN(c4ccccn4)CC3)sc21 | 5.8
CCN1CCCC1CNC(=O)CSc1cc(=O)n(CC)c2ccccc12 (stereo unspecified) | 0.5
CC1CCN(C(NC(=O)c2ccco2)C(=O)c2ccccc2)CC1 (stereo unspecified) | i
C=CCc1cccc(/C=N/n2cnnc2)c1O | i
CCOC(=O)c1oc2cc(O)ccc2c(=O)c1-c1ccccc1OC | 0.2
O=C(NC1(C(F)(F)F)C(=O)Nc2c1c(=O)[nH]c(=O)n2-c1ccc(F)cc1)c1cccnc1 (stereo unspecified) | i
CCOc1cc(NS(=O)(=O)CC)c(OCC)cc1NC(=O)c1ccco1 | 3.9
Cc1cc(C)n2c(=S)[nH]nc2n1 | i
CCCSc1nnc2c(n1)OC(c1cccn1C)N(C(C)=O)c1ccccc1-2 (stereo unspecified) | i
OCCN(CCO)Cc1ccc(Br)cc1 | 0.6
COCCn1ccc(O)c(Cc2ccc(Cl)cc2)c1=O | 0.5
CC(=O)OC1C(OC(C)=O)N(C(C)=O)C(=O)N1C(C)=O (stereo unspecified) | 1.0
OC(COc1ccc2ccccc2c1)Cn1ccnc1 (stereo unspecified) | i
O=C(Nc1ccc(Cl)cc1C(=O)Nc1ccncc1)c1ccco1 | i
Cc1nnc(NC(=O)c2ccc(C)c(S(=O)(=O)N3CCOCC3)c2)s1 | i
CCOc1ccc2nc(COC(=O)c3ccco3)c(C(C)=O)[n+]([O-])c2c1 | i
Oc1cnn(-c2ccccc2)c1 | i
O=C(CSc1nnc(-c2ccccc2Br)o1)N1CCN(C(=O)c2ccco2)CC1 | 1.4
COc1ccc(C(=O)Nc2cc(C(F)(F)F)ccc2-n2cncn2)cc1 | i
O=C1CCCN1CC(O)CS(=O)(=O)c1ccc(Cl)cc1 (stereo unspecified) | 0.1
CCOc1ccccc1OCCn1ncc2ccc(OC)c(OC)c2c1=O | i
COc1ccc(CCNC(=O)COC(=O)c2ccc(Br)o2)cc1OC | i
CC1(C)c2ccccc2N2CC(=O)NC21/C=C/c1ccco1 (stereo unspecified) | 1.9
O=C1CC(N(O)C2CC(=O)N(Cc3ccccc3)C2=O)C(=O)N1Cc1ccccc1 (stereo unspecified) | i
COc1cccc(C2c3c(-c4cc(Cl)c(C)cc4O)n[nH]c3C(=O)N2Cc2cccnc2)c1 (stereo unspecified) | i
Cc1oc(-c2ccccc2F)nc1CS(=O)(=O)CC(=O)NC1CCCC1 | 0.8
COCCNC(=O)c1ccc2c(c1)NC(=O)CS2 | 0.6
O=C(CNC(=O)Cc1ccccc1)NCC(=O)OCC(=O)c1cccc2ccccc12 | 0.9
O=C1C(Cl)=C(NCCCO)C(=O)c2ccccc21 | i
Brc1ccc(-c2noc(CCc3ccccc3)n2)o1 | i
CCOC(=O)c1ccc(-c2ccc(C(=O)Nc3cccnc3)o2)cc1 | i
Cn1c(SCC(=O)Nc2ccc3cn[nH]c3c2)nnc1-c1cccs1 | i

Later entries:
compound | H5N1 antiviral
Cc1ccc(CNC(=O)C2CCN(S(=O)(=O)c3c(C)noc3/C=C/c3ccco3)CC2)cc1 | i
COc1cccc(C2C(C#N)=C(N)Oc3cc(C)n(Cc4ccco4)c(=O)c32)c1 (stereo unspecified) | i
CCCc1cc(=O)[nH]c(SCC(=O)N(C)CC(=O)Nc2ccc(C)cc2)n1 | 0.4
CCOc1ccccc1CN1C(=O)c2ccccc2C1C(=O)NC(C)CC (stereo unspecified) | i
Cc1cc(C)nc(NC2=NCC(=O)N2c2ccccc2Br)n1 | 0.7
Cc1ccc(-c2nn(CC(N)=O)c(=O)c3ccccc23)cc1S(=O)(=O)N(C)C | 0.5
Cc1ccccc1OCC(=O)NC(=S)Nc1ccc(S(=O)(=O)NC2CCCCC2)cc1 | i
CCn1c(CSc2nc(C)cc(C)n2)nnc1SCC(=O)Nc1nc(-c2ccccc2)cs1 | i
CCOc1ccc(NC(=O)CN2CCN(CC(=O)c3ccc(OCC)cc3)CC2)cc1 | i
Cc1cc(C)n(-c2nc(-c3ccc(Cl)c(Cl)c3)cs2)n1 | i
Cc1ccccc1N1C(S)=C(C#N)C(=O)NC1c1cccs1 (stereo unspecified) | 0.2
CCCCn1c(SCC(=O)NCc2ccco2)nc2ccc(N3CCOCC3)cc2c1=O | 0.3
COc1ccc(NC(=O)CN(C2CCCCC2)S(C)(=O)=O)cc1OC | 0.5
Cc1cc(Br)ccc1NCc1ccccn1 | i
COCCOC(=O)c1c(C)n(C)c2ccc(OC(=O)C3CC3)cc12 | 1.0
CCCn1c(N)c(Sc2ccc(Cl)cc2)c(=O)n(CCC)c1=O | i

(cont.)
SMILES | H5N1 antiviral
CCOc1ccc(NC(=O)CCCc2cc(-c3ccc(OCC)cc3)on2)cc1 | i
CN(C)C(=O)CCc1nc(-c2ccc(C(C)(C)C)cc2)no1 | 3.8
Cc1ccc(C(=O)CN(C(=O)c2ccc(Cl)c(Cl)c2)N2C(=O)C3CCCCC3C2=O)cc1C (stereo unspecified) | 0.7
CCC(=O)N1c2ccc(S(=O)(=O)CCC(=O)NCc3cccs3)cc2CC1C (stereo unspecified) | i
CCOc1ccc(-c2nc(-c3ccc(OC)cc3)no2)cc1OCC | i
Cc1cc(O)c(C=Nc2ccc(Cl)cn2)c(=O)o1 | i
CCOC(=O)c1c(C)[nH]c(C(=O)CSc2nnc(-c3ccncc3)n2CC)c1C | i
O=C(O)C1CCCN1S(=O)(=O)c1ccc(Br)s1 (stereo unspecified) (tested in a mixture with another compound) | 1.2
CC(C)(C)C(=O)Nc1ccccc1C(=O)NCc1ccco1 | 3.4
CCc1ccccc1N(CC(=O)N/N=C/c1ccc(OC(=O)OC)c(OC)c1)S(C)(=O)=O | i
CC(CN1CCCCC1)OC(=O)c1cc2ccccc2o1 (stereo unspecified) | i
CC(=O)N1CCN(c2ccc(NC(=O)c3ccccc3Br)cc2Cl)CC1 | i
CC(C)(C)NC(=O)Cc1ccc(S(=O)(=O)N2CCCC2)s1 | 1.8
CC1(c2ccccc2)NC(=O)N(CC(=O)Nc2ccc3c(c2)OCO3)C1=O (stereo unspecified) | 2.6
Cc1nonc1OCCNC(=O)C12CC3CC(CC(C3)C1)C2 | 1.1
CCN(CC)C(=O)CCNS(=O)(=O)c1ccc(C)cc1 | 0.2
O=C(Nc1ccccc1)Nc1cccc2cccnc12 | i
CC1=NN(C(C)C)C(=O)C1 | i
COc1cc(NC(=O)CSc2ncccc2C(=O)OC(C)C)cc(OC)c1 | 0.6
COc1ccc2nc(NC(=O)CCc3nc(-c4ccccc4F)no3)sc2c1 | 0.2
Cc1ccc(S(=O)(=O)Nc2ccc(-c3nnc(SCC#N)n3C)cc2)cc1 | i
Cc1nnc(SCC(=O)NC2CCCCC2)n(N)c1=O | i
CC(=O)Nc1cccc(NC(=O)CSc2nnnn2C)c1 | 0.9
O=C(Cn1ccc2ccccc2c1=O)NCCC(=O)Nc1ccc2c(c1)OCCO2 | 0.1
Cc1csc(SCC(=O)Nc2nc(-c3ccccc3)cs2)n1 | i
COc1cccc2[nH]c3c(N4CCCCC4)ncnc3c12 | 1.1
O=C(Cc1ccccc1)NC1CCN(S(=O)(=O)c2cccc(F)c2)CC1 | 0.2
Cc1cccc(CN2CCN(CC(=O)NCCCN3CCCC3=O)C2=O)c1 | 0.1
CCc1ccc2[nH]cc(C(=O)N3CCCCCC3)c(=O)c2c1 | 0.7
CCOC(=O)C(NC(C)=O)(NS(=O)(=O)c1ccccc1)C(F)(F)F (stereo unspecified) | 0.3
CCOC(=O)CCCNC(=O)COC(=O)CCC(=O)c1ccc(F)cc1 | 0.4
C=CCNC(=O)c1ccccc1S(=O)c1ccccc1C#N (stereo unspecified) | i
COc1ccccc1N1CCN(C(=O)CCNS(=O)(=O)c2ccc3c(c2)CCC(=O)N3)CC1 | 0.1
CN(C)CCN1CCc2ccccc21 | i
COc1ccnc(Nc2cccc(C)c2)c1C#N | 0.5
Cc1cc(C(F)(F)F)nn1C(=O)c1cccnc1Cl | i
COC(=O)c1[nH]c2ccc(Br)cc2c1NC(=O)Oc1ccccc1 | 0.3
O=C(CN1CCCCC1)Nc1nnc(-c2ccc([N+](=O)[O-])cc2)s1 | 1.2
COc1ccccc1NC(=O)c1cc2n(n1)C(C(F)(F)F)CC(c1ccc3c(c1)OCO3)N2 (stereo unspecified) | i
CCOC(=O)C1=C(O)/C(=C\c2ccc(OC)c(OC)c2)N=C1C | 0.1
O=C(NCC(c1cccnc1)N1CCN(c2ccccc2F)CC1)Oc1ccccc1 (stereo unspecified) | 0.4
O=C1CC(N(O)c2ccccc2)C(=O)N1c1cc(Cl)cc(Cl)c1 (stereo unspecified) | i
Cc1ccc(-n2ncc3c(NCc4ccccn4)ncnc32)c(C)c1 | i
CCOc1cc2nc(-c3ccc(OC)c(OC)c3)nc(NCCCN3CCOCC3)c2cc1OC | i
CC(=O)Oc1ccc2ccccc2c1C(NC(=O)Cc1ccccc1)c1ccccc1 (stereo unspecified) | 3.3
COC(=O)c1ccc(CNC(=O)CSc2nnc(COc3ccccc3)n2C)o1 | 1.3
COCCN1CN(S(=O)(=O)c2ccc(Cl)cc2)c2nc3ccccc3nc21 | 1.1
CSc1nnc(CNC(=O)c2ccccc2)n1-c1cccc(C)c1 | 1.6
COc1ccc(C)cc1S(=O)(=O)N(CC(N)=O)Cc1ccccc1 | 2.2
C=CCOc1ccccc1/C=N/O | i
CCOC(=O)c1nc2sc3c(c2c(=O)[nH]1)CCCC3 | 0.7
Cc1ccc(C(=O)N(CN2CCCC2=O)c2ccc(F)cc2)cc1 | i
COc1ccc(OC)c(NC(=O)C2CCN(c3cc(-c4ccccc4)nc4ncnn34)CC2)c1 | i
COC(=O)COc1cc(Br)c(/C=C2/SC(=O)N(CC(=O)N3CCCC3)C2=O)cc1OC | i
O=C(O)c1cccc2c1C(=O)N(Cc1ccncc1)C2 | i
O=C(Nc1ccc(Cl)cc1C(=O)N1CCOCC1)c1ccco1 | 1.1
COc1ccccc1N1CCN(C(=O)CSc2nc3ncnc(N)c3[nH]2)CC1 | i
COc1ccc(OC)c2[nH]c(=O)c(CCNC(C)=O)cc12 | 0.2
COc1ccc(OCc2ccc(C(=O)NN)cc2)cc1 | i
Clc1ccc(CN2CCN(c3ncnc4scc(-c5cccs5)c34)CC2)cc1 | 2.0
CCCC1C(C#N)=C(N)Oc2n[nH]c(C(C)(C)C)c21 (stereo unspecified) | i
